Bioassay records deposited in PubChem by several laboratories.
T cruzi inh – inhibitors of intracellular T. cruzi growth, primary screen, luminescence, NIH3T3 host cells | T. cruzi beta-gal in NIH3T3, 90 h | inhibition, % (test concentration not listed) | 1.4% of 300,000 active;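 active = mean inhibition across valid replicates above about 55%, limit read from the data; inconclusive = mean below that limit but half or more replicates reach it; inactive = mean below it, under half of replicates reach it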;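 also: signal also drops with host cell toxicity which is not excluded here; 0% = plate median of DMSO wells and 100% = zero luminescence signal; higher percent means less beta-gal luminescence so fewer parasites; stock transfer was 50 nL into about 50 µL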
Bfl-1 A1 inh – caspase 3/7 activation in MEF A1-2A-BIM cells, primary screen, A1 inhibitor project, cell-based, luminescence, HTS | Caspase-Glo 3/7 luminescence, 3 h; percent of clofoctol response, vehicle zero | AID 2462, 2010 | caspase activation, % (no concentration beside the values) | 0.066% of 330,000 active;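 active = over half of replicate activation scores above 10%, or exactly half above 10 with the replicate mean above 10; inconclusive = replicate mean below 10 yet half the replicates above 10; inactive = over half of replicates below 10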;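 also: wells of about 30 µL received 50 nL stock; many hits fall short of the cut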
Beta apoptosis – inhibitors of cytokine-induced beta cell apoptosis, primary screen, luminescence; INS-1E cytokine-induced death, ATP luminescence, 48 h; percent of positive-control rescue, neutral wells zero; protection from apoptosis, % (no concentration beside the values); 0.8% of 300,000 active; AID 435005, 2010;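 active = all replicates at 75% or more, or half of them and the mean; inconclusive = half reach 75% but not the mean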;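 also: 0% = cytokine-treated negative control wells and 100% = positive control rescue; higher means more ATP so stronger rescue from cytokine killing; wells of about 40 µL received 100 nL stock; the first replicate is given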
LANA-H2A inh – blockers of LANA interaction with H2A/H2B – biochemical, FP readout, HTS, primary screen. Protein LANA1 (Human herpesvirus 8 type P (isolate GK18)), Q9QR71. cell-free LANA-H2A/H2B peptide, fluorescence polarization. inhibition, % (test concentration not listed). 0.6% of 320,000 active; in the data active = inhibition mostly above about 10%, no sharp cut-off; inactive = mostly below about 6.7%;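 also: stock transfer was 7.5 nL into about 10 µL; 0% = median of vehicle wells and 100% = median of positive control wells; one replicate is shown; the record names a cut of 25% in any replicate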
Vif A3G – inhibitors of Vif binding to APOBEC3G peptide, primary screen, biochemical, TR-FRET, GST-Vif 1-94, biotin-A3G peptide, dose response retest (AID 1117319) | TR-FRET GST-Vif / biotin-A3G peptide binding; higher % means a stronger effect; test concentration not given here; strong numbers were not always called active | inhibition, %, or IC50 in µM where a hit was titrated | 0.57% of 260,000 active;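 active = above the screen mean plus three standard deviations and confirmed in dose response; inconclusive = results disagree or hit not tested in dose response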;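 also: Vif residues 1-94 fused to GST binding biotinylated APOBEC3G peptide 110-148; 0% = full assay without inhibitor and 100% = GST in place of GST-Vif; retest series ran down from 100 µM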
Calb FLC – C. albicans growth inhibition with fluconazole, primary screen, CaCi-2 strain, Alamar Blue fluorescence | C. albicans CaCi-2 (fluconazole-resistant clinical isolate) + fluconazole, 48 h | growth inhibition, % (no concentration beside the values) | 0.57% of 300,000 active | AID 1979, 2009;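 active = most replicates above 75%; inconclusive = exactly half above 75%; inactive = most below 75%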;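 also: all wells also contain fluconazole at 8 µg/ml as a sub-toxic cotreatment; 0% = median of DMSO wells and 100% = median of geldanamycin control wells; wells of about 8 µL received 7.5 nL stock; the first replicate is given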
MLL AF4-AF9 inh – inhibitors of AF4 peptide binding to AF9, primary screen, biochemical, AlphaScreen, biotin-AF4 peptide, FLAG-AF9, single point; Protein AF-9 (Homo sapiens), P42568; inhibition, % at 10 µM; 0.47% of 350,000 active;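 active = every replicate reaching a set inhibition limit, whatever the replicate mean, cut at about 25% in these data; inconclusive = mean inhibition reaches that limit but some replicates miss it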;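 also: 0% = plate neutral control median and 100% = total signal loss; the record names both 10 and 1 µM as test concentration; the first replicate is given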
Target sequence (P42568 whole entry, looked up): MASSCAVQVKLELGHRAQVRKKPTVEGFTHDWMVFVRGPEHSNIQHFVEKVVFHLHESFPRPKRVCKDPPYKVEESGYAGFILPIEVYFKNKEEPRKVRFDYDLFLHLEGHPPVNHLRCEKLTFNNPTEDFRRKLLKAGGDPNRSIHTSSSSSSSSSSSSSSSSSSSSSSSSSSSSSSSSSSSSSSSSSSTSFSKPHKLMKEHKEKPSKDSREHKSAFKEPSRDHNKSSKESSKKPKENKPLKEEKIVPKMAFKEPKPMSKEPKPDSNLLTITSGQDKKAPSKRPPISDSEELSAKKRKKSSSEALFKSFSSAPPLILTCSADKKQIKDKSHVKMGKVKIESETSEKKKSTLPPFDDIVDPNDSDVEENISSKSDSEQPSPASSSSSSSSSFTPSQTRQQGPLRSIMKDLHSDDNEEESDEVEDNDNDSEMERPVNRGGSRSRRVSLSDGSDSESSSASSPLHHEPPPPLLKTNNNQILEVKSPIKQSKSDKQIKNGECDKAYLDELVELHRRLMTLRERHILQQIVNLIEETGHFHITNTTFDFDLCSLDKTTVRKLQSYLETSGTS
RanGTP-Imp inh – inhibitors of RanGTP-importin-beta interaction, primary screen, biochemical, FRET, CFP-Ran, YFP-importin-beta, homogeneous. Ran GTPase (GTP-bound) - importin-beta complex. cell-free CFP-Ran/YFP-importin-beta FRET ratio. inhibition, % (concentration not given with the values). 1.1% of 300,000 active. AID 2216, 2009;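 active = most replicates above 15%; inconclusive = exactly half above 15%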;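 also: 0% = DMSO wells and 100% = Ran loaded with GDP instead of GTP; wells of about 40 µL received 100 nL stock; the first replicate is given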
Active calls of the source: *; ? = inconclusive; / = not tested or not shown; & = joins results of further samples.

SMILES | T cruzi inh | Bfl-1 A1 inh | Beta apoptosis | LANA-H2A inh | Vif A3G | Calb FLC | MLL AF4-AF9 inh | RanGTP-Imp inh
Cc1ccccc1-n1ncc2c([N+](=O)[O-])cc([N+](=O)[O-])cc21 | 51.4 | 0.5 | 35.7 | -0.4 | 4.3% | ? | / | 0.2
COc1ccc(-c2csc(N)n2)cc1F | -2.0 | -7.1 | -7.7 | 3.6 | 2.0% | 4.7 | 0.6 | 5.0
CCc1ccccc1NC(=O)N[C@@H](C)C(=O)OC | -4.9 | 0.1 | -2.9 | 1.8 | -1.2% | -2.3 | / | -13.0
CCCCn1c(N)c(N(CCOC)C(=O)CN2C(=O)C3CCCCC3C2=O)c(=O)[nH]c1=O (stereo not given) | / | -0.1 | 3.0 | 0.6 | -1.7% | / | 1.6 | /
CC1=C(C(=O)O)N2C(=O)C(NC(=O)c3nn(C)cc3Cl)C2SC1 (stereo not given) | -8.7 | -0.5 | -2.1 | -1.1 | 1.9% | 2.9 | / | -0.3
CCc1cc(=O)oc2c(CN3CCCC3)c(O)c(Cl)cc12 | -1.3 | 0.5 | -7.6 | 3.2 | 28.6% | 2.1 | / | ?
Cc1sc2nc(SCC(=O)NCc3ccco3)n(-c3ccccc3)c(=O)c2c1C | -0.5 | 1.4 | 1.9 | 13.9 | -75.8% | -2.9 | 1.1 | 22.7*
O=C(N/N=C\c1cn[nH]c1-c1ccccc1)c1cccnc1 | -18.5 | -0.2 | 1.1 | -3.3 | 2.7% | 5.3 | -0.7 | -0.6
O=C(/C=C/c1ccco1)N(Cc1ccc(Cl)cc1)C1CCS(=O)(=O)C1 (stereo not given) | -11.1 | 0.5 | / | 3.6 | 29.0% | 4.2 | -4.7 | 0.1
NC(=O)c1nn(-c2ccccc2)nc1NC(=O)CN1CCCC1 | 0.3 | -0.2 | -4.7 | 6.8 | -5.6% | -11.3 | -3.5 | -3.1
O=C(CCSc1ccccc1)N1CCCC1 | -6.8 | -1.9 | 6.3 | 7.7 | -12.7% | -4.9 | 0.7 | -0.6
CCN(CC)CCCN(Cc1cc2cc3c(cc2[nH]c1=O)OCCO3)C(=O)Nc1ccccc1 | 0.5 | 0.7 | -20.7 | -1.5 | 24.9%&-1.3% | -4.0 | / | 0.5
O=C(c1ccc2c(c1)OCO2)C1CCCN(Cc2cc(F)ccc2-n2cccn2)C1 (stereo not given) | 2.0 | -0.5 | -6.3 | 5.8 | 5.7% | 8.8 | -0.9 | 2.1
COc1cccc(CNC(=O)CCC2CCCN(C(=O)c3cccc(Cl)c3)C2)c1 (stereo not given) | 6.5 | -0.8 | 0.3 | -3.1 | / | -7.5 | -0.9 | -1.1
CCOC(=O)CSc1nnc(CNc2ccc(Cl)cc2)n1Cc1ccccc1 | -3.2 | -0.3 | -4.4 | 6.9 | 8.3% | 4.2 | / | -0.1
O=C(N/C(=C\c1ccc(Br)cc1)C(=O)N1CCCC1)c1cccs1 | 5.8 | -0.2 | -6.2 | -5.2 | 9.4% | 28.6 | 3.2 | 0.1
COc1ccc(-c2c(O)c(C#N)c(-c3ccccc3)n(-c3ccc(OC)cc3)c2=O)cc1 | 6.8 | -0.2 | -4.5 | -1.6 | / | -3.0 | / | 2.7
O=C(CSc1nnc(Cc2ccccc2)n1-c1ccccc1)NNC(=O)Cc1ccccc1 | -14.3 | -0.1 | -1.2 | -2.0 | -3.8%&-2.9% | ? | / | -6.7
COc1ccc(F)cc1S(=O)(=O)N1CC(C)CC(C)C1 (stereo not given) | -0.4 | 0.8 | -12.1 | 1.6 | 4.2% | 3.2 | / | -0.2
CCOC(=O)C1CCN(c2c(NCc3ccc(C(=O)Nc4ccc(C)cc4)cc3)c(=O)c2=O)CC1 | -6.0 | -0.2 | -1.3 | -5.6 | 23.2% | 0.2 | 6.0 | -2.8
Cc1ccc(NC(=O)Cn2c(O)c(N=NC(=O)c3cc([N+](=O)[O-])ccc3O)c3ccccc32)cc1 | -28.2 | -0.3 | -3.7 | -0.7 | 11.0% | 13.3 | / | -0.9
CC(OC(=O)CN1C(=O)NC(C)(C)C1=O)C(=O)c1ccccc1 (stereo not given) | -2.7 | 0.3 | 0.5 | 1.7 | -9.6% | -0.9 | / | -1.7
Cc1ccc(S(=O)(=O)NC(C)C(=O)N2CCOCCOCCOCCOCC2)cc1 (stereo not given) | -11.7 | 0.0 | -9.0 | 1.5 | / | -3.4 | -11.5 | -1.0
O=C(Cn1c(=O)n(Cc2ccco2)c(=O)c2ccccc21)NCC1CCCO1 (stereo not given) | -2.0 | 0.6 | -5.7 | 0.4 | 4.8% | 7.2 | / | 1.4
CCOc1ccc(NS(=O)(=O)c2cc3c4c(c2)CCN4C(=O)CC3)cc1 | -2.6 | -0.1 | 0.4 | 1.1 | 1.7% | 3.4 | -1.2 | -2.7
CCOc1ccc2c(c1)c(N=NC(N)=S)c(O)n2C | -1.3 | 0.3 | 0.6 | -5.0 | 13.7% | -4.2 | 5.9 | -0.8
O=C(COC(=O)C1CC2CCCC(C1)C2=O)NC1CCCCC1 (stereo not given) | / | -0.5 | -4.4 | -2.8 | / | / | -0.7 | /
Cc1cccc(Nc2cc(=O)[nH]c(=O)[nH]2)c1 | 3.9 | -0.1 | -2.1 | 2.6 | 3.0% | -1.4 | -2.8 | -2.0
Cc1nc2nc(-c3ccco3)[nH]n2c(=O)c1Cc1ccccc1 | -43.5 | -0.3 | 4.7 | 2.4 | 26.3% | 48.5 | / | 4.8
Oc1ccc(/C=N/N(Cc2ccccc2)c2ccccc2)cc1 | 25.3 | -0.2 | / | 3.5 | -3.5% | -43.5 | 2.8 | -1.4
Cn1c(=O)c2c(nc(NCCNC(=O)c3ccco3)n2Cc2ccc(Cl)cc2Cl)n(C)c1=O | -11.7 | 0.3 | 4.6 | 7.3 | 3.5% | -3.4 | / | ?
CCN1C(=O)[C@H]2[C@@H](c3ccc(C)cc3)N3C(=O)N(c4cccc(F)c4)C(=O)[C@@]3(CC)[C@H]2C1=O | -11.8 | 0.1 | -0.4 | -3.3 | / | -9.3 | -4.2 | 0.0
C[C@@H]1CC2OC(=O)[C@@]3(C)C(=O)CC[C@@](C)(C23)[C@@]1(O)CCc1ccoc1 (stereo not given in full) | -0.2 | 1.5 | / | -1.3 | 0.1% | -9.5 | 0.7 | -0.5
CCn1c(=O)n(-c2ccc(Cl)cc2)c(=O)c2c3c(sc21)COC(C)(C)C3 | 15.5 | 0.3 | -8.9 | -1.5 | -2.5% | 12.3 | / | -1.2
CCCCc1nnc(SCCSc2nnc(CCCC)n2N)n1N | -4.3 | 0.9 | -7.8 | 2.4 | 2.3% | -13.3 | / | /
O=C(Cn1cccc1)Nc1ccc(OC(F)(F)F)cc1 | -18.6 | 0.8 | 1.5 | 3.6 | 16.7% | -4.0 | -3.2 | 1.9
O=C1CC(c2cccs2)Cc2nc(NCC3CCCO3)ncc21 (stereo not given) | -5.1 | 0.3 | 0.5 | 1.8 | 1.7% | -6.6 | / | -1.7
COc1cccc(Nc2nc(C)nc3c2oc2ccccc23)c1 | -1.5 | -0.6 | 7.7 | 0.8 | -3.1% | 1.9 | 0.8 | 0.7
O=C(NCc1ccc(Cl)cc1)c1ccc(OCC2CCCO2)cc1 (stereo not given) | -14.0 | 1.4 | -1.7 | -2.6 | -1.6% | 2.8 | -2.7 | -0.3
O=C(Nc1ccc(-c2nc3cc(Cl)ccc3o2)cc1)C1CCCO1 (stereo not given) | 4.9 | -4.3 | 8.4 | 8.7 | 30.6% | -19.8 | / | 0.6
Cc1cc(C)n(CCc2nc(-c3ccco3)cs2)n1 | -4.4 | -0.3 | -4.0 | 2.8 | ? | -3.8 | 8.4 | -2.3
CC(C)(C)C(CCl)C(=O)NN=C(c1ccccc1)c1ccccc1 (stereo not given) | / | -0.3 | -5.4 | 3.4 | / | / | -17.0 | /
N#C/C(=C(/O)c1ccc(-c2cccc([N+](=O)[O-])c2)o1)c1nc2ccccc2s1 | -17.2 | / | / | / | 6.3% | ? | 0.2 | 7.5
CCOC(=O)c1ccc(N/C=C2\CCCCC2=O)cc1 | -4.5 | 0.2 | -5.2 | -1.3 | ? | -1.3 | / | 3.8
COc1ccccc1OCc1ccc(C(=O)N2CCOCC2)o1 | 12.6 | -0.5 | 0.0 | -3.8 | / | 6.7 | 2.3 | 2.9
Nc1ccc(Nc2ccccc2)c(S(=O)(=O)O)c1 | -18.5 | 0.3 | 0.0 | 4.3 | 5.26µM* | 9.3 | 13.1 | 0.4
O=C(c1cccc(C(F)(F)F)c1)N1CCC(O)(CS(=O)(=O)Cc2ccccc2)CC1 | -5.8 | 0.7 | / | -3.0 | -10.3% | -3.1 | / | 0.0
O=C(CSc1nnc(C2CC2)n1Cc1ccco1)NCC(F)(F)F | -2.6 | -0.5 | -3.7 | 0.0 | 6.4% | 1.7 | -2.7 | 0.5
C/C(=N\NC(=O)C(O)(c1ccccc1)c1ccccc1)c1ccc(NC(=O)CCCC(=O)O)cc1 | -0.9 | 0.0 | 5.3 | -1.4 | / | 0.5 | -2.2 | 0.2
O=C(CNc1ccc(F)cc1)N/N=C/c1c(O)ccc2ccccc12 | 15.7 | 1.1 | 81.0* | -4.2 | / | 34.1 | -1.2 | 4.1
Cc1ccc(-c2noc(CCC(=O)NCC3CCCO3)n2)cc1 (stereo not given) | -0.8 | 0.2 | -4.7 | -2.8 | -0.3% | 11.4 | / | ?
COc1ccc(Nc2ccc([N+](=O)[O-])cn2)cc1 | -3.0 | 2.4 | 9.6 | 2.7 | / | -8.6 | -3.0 | -3.8
COC(=O)CCCNC(=O)c1ccc2nc(Cc3ccc(OC)cc3)oc2c1 | -4.0 | 0.6 | / | -0.8 | / | 2.6 | 5.1 | 0.6
CN(C(=O)COC(=O)c1ccc2c(c1)OCO2)c1c(N)n(Cc2ccccc2)c(=O)[nH]c1=O | 0.5 | 0.4 | / | 2.1 | -3.3% | -2.6 | -0.8 | 7.7
COCCOCCn1cnc2ccccc21 | -0.2 | 0.6 | -0.5 | 2.8 | 17.2% | -3.3 | / | -0.6
Cc1ccc(NC(=O)C(C)OC(=O)CCN=C2NS(=O)(=O)c3ccccc32)cc1 (stereo not given) | -2.7 | 0.2 | -2.7 | 5.1 | 1.7% | 1.3 | -0.9 | -8.2
